Compound activity (PubChem BioAssay)
VDR inhibitor – blocks the human vitamin D receptor; Potency, µM, for inactives: max response, negative = inhibition, usual class: inhibitors; actives 0.93% (n = 400,000); AID 504847; VDR-SRC2-3 peptide fluorescence polarization, 2 h; active means well fitted inhibition curve with a large enough effect; inconclusive means small, poorly fitted or top-dose-only effect, or another doubt; inactive means no such curve, though single readings can be large or run the other way; further: series mostly up to about 120 µM
Target sequence (P11473 whole entry, looked up): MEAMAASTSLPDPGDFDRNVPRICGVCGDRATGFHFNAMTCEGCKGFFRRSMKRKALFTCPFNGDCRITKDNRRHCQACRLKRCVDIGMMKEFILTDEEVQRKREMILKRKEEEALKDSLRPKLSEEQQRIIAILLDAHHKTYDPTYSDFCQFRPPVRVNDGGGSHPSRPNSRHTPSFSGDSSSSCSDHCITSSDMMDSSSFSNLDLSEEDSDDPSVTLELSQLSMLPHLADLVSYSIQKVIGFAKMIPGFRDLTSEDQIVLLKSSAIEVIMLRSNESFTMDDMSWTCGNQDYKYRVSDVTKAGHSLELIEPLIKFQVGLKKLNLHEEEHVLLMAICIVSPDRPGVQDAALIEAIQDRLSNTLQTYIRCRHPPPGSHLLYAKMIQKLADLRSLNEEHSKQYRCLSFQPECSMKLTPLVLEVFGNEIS
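FP read-out; VDR + SRC2-3 coactivator peptide; 23 nl compound by pintool; 2 h RT incubation; reagents held at 4 deg C, protected from light.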
The depositor's hits bear a star; ? = inconclusive. On the % scale 0 is the no-effect control and ±100 the full control effect; potency means the concentration at half of the fitted maximal effect. A portion of the library; count on the stated rates, not on these rows.

VDR inhibitor	structure
-7%	CCOC(=O)N1CCN(C(=O)c2cccc(S(=O)(=O)Nc3ccc(F)cc3)c2)CC1
3%	CC(=O)N1CCCc2cc(S(=O)(=O)NCc3ccc(N(C)C)cc3)ccc21
10%	CCc1ccc(CNC(=O)C2CCN(C(=O)N3CC(CC)Oc4ccc(C)cc43)CC2)cc1 (centres undefined)
-7%	S=C(Nc1ccc(Oc2ccccc2)cc1)N(CCCN1CCOCC1)Cc1ccccn1
-4%	COc1cc(F)ccc1S(=O)(=O)N1CCN(c2ccccc2)CC1
?	CN(C)CCCn1c(=O)n(CCc2ccccc2)c(=O)c2c3c(sc21)CCCCC3
10%	COc1ccccc1C(=O)O/N=C1/CCCc2c1ccc(OC)c2[N+](=O)[O-]
-8%	Cc1ccc(CNC(=O)C2CCC(=O)N(CCCN3CCOCC3)C2)cc1 (centres undefined)
-23%	COC(=O)c1cc([N+](=O)[O-])ccc1N1CCN(Cc2ccccc2)CC1
-2%	COCCCn1ccc(O)c(Cc2ccc(F)cc2)c1=O
12%	Cc1ccccc1OC(=O)CSc1nnc(-c2cccs2)o1
12%	CCCC(=O)NCCc1cc2ccc(OC)cc2[nH]c1=O
11%	COc1ccc(C(=O)N2CC(=O)Nc3ccccc32)cc1S(=O)(=O)N1CCCC1
3%	Cc1ccc(C(=O)c2nocc2C(=O)c2cccs2)cc1
4%	COc1nc(Nc2ccccc2)nc(OC)n1
-20%	Cc1cc(=O)nc2c3ccccc3n(CC(=O)NCCCN3CCCC3=O)n12
2%	[O-]/C(=C(\C(=S)NCc1ccccc1)[n+]1ccccc1)c1ccc(Cl)cc1
-19%	O=C(CCCNC(=O)c1ccc(Cl)cc1)Nc1cccc(F)c1
-11%	O=C(CN1CCN(S(=O)(=O)c2ccc3ccccc3c2)CC1)Nc1ccc(N2CCOCC2)cc1
-2%	CC1CCc2sc3ncnc(N4CCN(CCO)CC4)c3c2C1 (centres undefined)

Copied from above for reference:
VDR inhibitor	structure
3%	Cc1ccc(C(=O)c2nocc2C(=O)c2cccs2)cc1
4%	COc1nc(Nc2ccccc2)nc(OC)n1
-20%	Cc1cc(=O)nc2c3ccccc3n(CC(=O)NCCCN3CCCC3=O)n12
2%	[O-]/C(=C(\C(=S)NCc1ccccc1)[n+]1ccccc1)c1ccc(Cl)cc1
-19%	O=C(CCCNC(=O)c1ccc(Cl)cc1)Nc1cccc(F)c1
-11%	O=C(CN1CCN(S(=O)(=O)c2ccc3ccccc3c2)CC1)Nc1ccc(N2CCOCC2)cc1
-2%	CC1CCc2sc3ncnc(N4CCN(CCO)CC4)c3c2C1 (centres undefined)

(next part)
VDR inhibitor	structure
-2%	CCn1cc(C(=O)N2CCc3ccccc32)c(=O)c2cc(S(=O)(=O)N3CC(C)CC(C)C3)ccc21 (centres undefined)
-15%	COc1ccc(CCNC(=O)c2cc3c(=O)n4ccccc4nc3n(Cc3ccco3)c2=N)cc1OC
?	C=CCn1c(SCC(=O)N2CCOCC2)nc2ccccc2c1=O
24%	Cc1cc(C(=O)COc2ccc(F)cc2Br)c(C)n1C
?	COc1cc2c(cc1OC)/C(=C/c1ccc(Br)cc1)C(=O)OC2
-19%	Cc1csc(C)[n+]1CC(=O)c1ccccc1
1%	O=C(NCC(=O)N(c1ccc(F)cc1)C(C(=O)NC1CCCC1)c1cccnc1)c1ccco1 (centres undefined)
-14%	C[C@H]1CN=C(N(C)C)N1CCC1CCCC1
0%	O=C(COC(=O)CCCc1nc2ccccc2s1)Nc1ncc(Cl)cc1Cl
-10%	S=C(NCc1cccnc1)NCc1cccnc1

Sorted by value in VDR inhibitor (low to high): some entries from above
VDR inhibitor	structure
-10%	S=C(NCc1cccnc1)NCc1cccnc1
-2%	CCn1cc(C(=O)N2CCc3ccccc32)c(=O)c2cc(S(=O)(=O)N3CC(C)CC(C)C3)ccc21 (centres undefined)
24%	Cc1cc(C(=O)COc2ccc(F)cc2Br)c(C)n1C

Going on with the list:
VDR inhibitor	structure
12%	COc1ccc(N2CCN(S(=O)(=O)c3cc(Br)cnc3N)CC2)cc1
-9%	O=C(COc1ccccc1)NNc1nc2ccccc2s1
0%	CCOc1ccc(NC(=O)CN2CCN(C(=O)C3CCCO3)CC2)cc1 (centres undefined)
5%	COc1ccccc1CC(=O)NNS(=O)(=O)c1cccc([N+](=O)[O-])c1
18%	COc1ccc(N/C=C(\C#N)S(=O)(=O)c2ccc(OC)cc2)cc1
-7%	COc1cc(/C=C/C(=O)OCC(=O)Nc2c(C)n(C)n(-c3ccccc3)c2=O)ccc1OCC#N
-21%	O=C(O)CN1C(=O)C2C3CC(C2C1=O)C1C(c2ccc(F)cc2)c2sc(=O)[nH]c2SC31 (centres undefined)
-2%	O=C(N/N=C/C=C\c1ccccc1[N+](=O)[O-])c1cc(-c2ccc3ccccc3c2)n[nH]1
15%	COc1cc(Cl)c(C)cc1NC(=O)CSc1nc2c(c(=O)[nH]1)CCCC2
20%	CCCc1cc(=O)oc2cc(Oc3ncccn3)ccc12
14%	O=C(Cn1c(-c2cccs2)cc2ccccc21)N1CCN(c2ccc(F)cc2)CC1
-2%	COc1ccc(S(=O)(=O)N2CCCCCC2)cc1C(=O)NCCc1ccc(F)cc1
-11%	COc1ccc(CCNC(=O)COc2ccc(S(=O)(=O)N3CCOCC3)cc2)cc1
9%	Cc1nc2ccccc2n1CCOc1ccc(F)cc1
-11%	O=c1c(-c2ccc(Cl)cc2)coc2c(CN3CCCCC3)c(O)ccc12
13%	O=C(N/N=C\c1cccc(Cl)c1)c1ccc(Cn2cc(Br)c([N+](=O)[O-])n2)o1
1%	CC(=O)c1ccc(OCc2cn(CC(=O)c3ccc(O)cc3)nn2)cc1
-25%	C=CCn1c(=O)c2c(nc(-n3nc(C)cc3C)n2C)n(C)c1=O
-9%	CC1(C)NC(=O)N(CC(O)COc2ccc(-c3ccccc3)cc2)C1=O (centres undefined)
-6%	CC(C)n1cnc2c(oc3ccccc32)c1=O
6%	Cc1ccccc1CSc1nsc(N)n1
-2%	COc1ccc2occ(C(=O)c3coc4ccc(O)c(CN(C)C)c34)c2c1
-6%	CCNc1ncc2nc(-c3ccc(F)cc3)c(=O)n(C[C@H]3CCCO3)c2n1
-20%	O=C(NC(=S)N1CCCc2ccccc21)c1ccc(Br)cc1
-3%	CCn1c(SCc2ccc(Cl)c(Cl)c2)nnc1C(C)NC(=O)c1ccc(OC)cc1 (centres undefined)
-7%	CC(=O)c1ccc(NC(=O)Nc2ccc(Br)cc2C)cc1
-22%	CCOC(=O)[C@H]1[C@H]2COc3ccc(C)cc3[C@@H]2N2C(=O)c3cc(F)ccc3NC(=O)[C@@]12C
-14%	COc1ccc(C(=O)N2CCN(c3ccc(NC(=O)c4cccnc4)cc3)CC2)cc1
7%	O=C(NCCc1ccccc1)c1ccc2nc3cc(Cl)ccc3c(=O)n2c1
13%	N#Cc1ccccc1Sc1ccccc1C(=O)OCc1nnc(-c2ccccc2)o1
-15%	S=c1nc(-c2ccccc2)c(-c2ccccc2)n[nH]1
9%	COc1ccc(-c2nc(Cn3c(SCc4ccccc4F)nc4ccncc43)c(C)o2)cc1OC
15%	COc1ccc(-c2[nH]ncc2CN2CCN(c3ccccn3)CC2)c(OC)c1
-5%	CCOC(=O)c1cnc(-n2nc(C)cc2C)nc1N1CCOCC1
1%	CCOC(=O)N1CCN(c2cc(N(C)CCO)c([N+](=O)[O-])c3nonc23)CC1
-1%	COc1ccc(OC)c(NC(=O)Cn2nc3c(cc2=O)CCCC3)c1
5%	Cc1cccc2sc(NC(=O)CCn3cccc3)nc12
3%	CCOc1ccc(NC(=O)NCCCSC2CCCCC2)cc1
-12%	COc1ccc(OC)c(CN2CCN(C(=O)c3cccc(S(=O)(=O)Nc4ccccc4OC)c3)CC2)c1
-10%	O=C(CNS(=O)(=O)c1cccc(C(F)(F)F)c1)Nc1ccccc1F
6%	O=C(NCCCn1ccnc1)C(=O)NCc1ccc(Cl)cc1
9%	CCOC(=O)N1CCN(C(=O)C(CC(C)C)NS(=O)(=O)c2ccc3c(c2)oc(=O)n3C)CC1 (centres undefined)
-14%	Cc1c(C)c2ccc(OCC(=O)N3CCN(c4ccccc4)CC3)cc2oc1=O
-9%	CCOC(=O)c1c(C)[nH]c(C(=O)COC(=O)[C@H](C)N2C(=O)C3CCCCC3C2=O)c1C (some centres undefined)
-16%	CCOC(=O)c1[nH]c2ccc(OC)cc2c1NC(=S)N1CCN(c2cccc(Cl)c2)CC1
4%	COc1ccc(NC(=O)CSc2n[nH]c(-c3ccccc3)n2)cc1Cl
-21%	CC(=O)Nc1c(O)cc(Br)c2nonc12
17%	CCNC(=O)C1CC(=O)OC12CCCCC2 (centres undefined)
14%	CN1CCN(S(=O)(=O)c2cccc(C(=O)N(Cc3ccccc3)c3ccccc3)c2)CC1
14%	Cn1c(N2C(=O)CC(Cc3ccccc3)C2=O)nc2ccccc21 (centres undefined)

The results go on:
VDR inhibitor	structure
2%	O=C(CN1C(=O)c2cccc3cccc1c23)NCc1cccnc1
-12%	O=C(Nc1ccc(Br)cc1)c1cccc(N2C(=O)C3C4CCC(C4)C3C2=O)c1 (centres undefined)
-11%	CCC(CC)NC(=O)c1ccc2c(c1)OCCO2
2%	O=C(Nc1ccc(Br)cc1F)c1ccc2c(c1)N(Cc1ccccc1)C(=O)CS2=O (centres undefined)
16%	CCC(C)c1ccc(C(C)NC(=S)NCc2ccc(F)cc2)cc1 (centres undefined)
-7%	C=C(C)C(=O)N1CC2(CC(c3cccc(NC(=O)CC(c4ccccc4)c4ccccc4)c3)=NO2)C[C@H]1C(N)=O (some centres undefined)
-6%	CCc1ccccc1N(CC)C(=O)c1cc2c(s1)-c1ccccc1OC2
-17%	CCC(NC(=O)C(C)NC)C(=O)N1CCCC1C(=O)NC1CCCc2ccccc21 (centres undefined)
-11%	COc1ccccc1NC(=O)C1=C(C)Nc2nc(-c3cccs3)nn2C1c1cccc(O)c1 (centres undefined)
-15%	Cc1nc2ccccc2c(=O)n1/N=C/c1ccccc1OC(F)F
1%	Cc1cccc(NC(=O)c2cc(Cl)nc3ccccc23)c1
-6%	O=C(CSc1nnc(-c2cccnc2)s1)Nc1cccc(C(=O)O)c1
-17%	COc1ccc(C2(CNC(=O)C(c3ccccc3)c3ccccc3)CCOCC2)cc1OC
?	CC(=O)OC1CC2C(C)(C)C(=O)C=C[C@]2(C)C2CC[C@@]3(C)C(c4ccoc4)OC(=O)C4O[C@@]43[C@]12C (some centres undefined)
9%	O=C(CSc1n[nH]c(=O)n1Cc1ccco1)Nc1ccccc1
0%	O=C(NC1CC1)C(Cl)c1ccccc1 (centres undefined)
-21%	CCOC(=O)CN1C(=O)N[C@@H](CCc2ccccc2)[C@@H](C(=O)OC)[C@H]1C
12%	COc1ccccc1-c1nnc(SCC(=O)Nc2nc(-c3ccccc3)cs2)n1C
0%	Cc1c(NC(=O)Nc2ccccc2C(F)(F)F)sc2nc3n(c(=O)c12)CCC(C)CC3 (centres undefined)
-1%	O=c1c2ccccc2nnn1CSc1nc2ccccc2[nH]1
6%	Cc1cc(Cl)ccc1Oc1ncnc2onc(C)c12
-4%	CC(C)(C)NC(=O)[C@@H]1C[C@H]2CCCC[C@@H]2CN1C[C@H](O)[C@H](Cc1ccccc1)NC(=O)[C@@H](CC(N)=O)NC(=O)c1ccc2ccccc2n1
-1%	O=C(CSc1nnc(NC(=O)C2CC(=O)N(c3ccc(F)cc3)C2)s1)NCC1CCCO1 (centres undefined)
?	O=C(CCN1C(=O)/C(=C/c2ccc(F)cc2)SC1=S)NCCc1cnc[nH]1
6%	Cc1ccccc1N1C(=O)C(Oc2ccc(Cl)cc2)C1CNC(C)(C)C (centres undefined)
-8%	Cc1cccc(CNC(=O)CCc2nnc(C3CCCCC3)o2)c1
-3%	CC(C)Cn1c(=O)c(C(=O)NCc2ccccn2)c(O)c2ccccc21
15%	Cc1onc(-c2c(F)cccc2Cl)c1C(=O)Nc1ccc(Cl)c(S(=O)(=O)N(C)C)c1
-17%	COc1ccccc1C(=O)N1CCN(C(=O)c2ccncc2)CC1
11%	O=C(CCC(=O)OC(C(=O)c1ccccc1)c1ccccc1)Nc1ccccc1 (centres undefined)
-1%	O=C(O)CSC1c2ccccc2C(=O)N1c1ccccc1 (centres undefined)
-19%	Cc1cc(C(=O)NNC(=S)Nc2cccc(C(F)(F)F)c2)nn1C
8%	COc1ccc(NC(=O)COC(=O)c2cc(C)oc2C)cc1OC
1%	CC(C)NC(=O)COc1ccc(/C=N/NS(=O)(=O)c2ccccc2)cc1
?	O=C1CCC(C(=O)OCC(=O)c2ccccc2)N1 (centres undefined)
-19%	Cc1ccccc1NC(=O)C(=Cc1ccc(C(=O)O)cc1)C(=O)Nc1ccccc1C
-3%	CC1(C)CC(=O)C(C=Nc2ccncc2)=C(O)C1
13%	Cc1ccc(NC(=O)CCN2C(=O)C3CCCCC3C2=O)c(O)c1 (centres undefined)
-10%	O=C(c1ccc(-c2ccccc2)cc1)N1CCCC1
4%	Cc1cc(C(=O)COC(=O)Cc2n[nH]c(=O)c3ccccc23)c(C)n1CC(F)(F)F

Seven entries from above, sorted by molar mass, high to low.
VDR inhibitor	structure
4%	Cc1cc(C(=O)COC(=O)Cc2n[nH]c(=O)c3ccccc23)c(C)n1CC(F)(F)F
8%	COc1ccc(NC(=O)COC(=O)c2cc(C)oc2C)cc1OC
13%	Cc1ccc(NC(=O)CCN2C(=O)C3CCCCC3C2=O)c(O)c1 (centres undefined)
-1%	O=C(O)CSC1c2ccccc2C(=O)N1c1ccccc1 (centres undefined)
-10%	O=C(c1ccc(-c2ccccc2)cc1)N1CCCC1
?	O=C1CCC(C(=O)OCC(=O)c2ccccc2)N1 (centres undefined)
-3%	CC1(C)CC(=O)C(C=Nc2ccncc2)=C(O)C1
